Source: PubChem BioAssay
Rce1 inh: blocks yeast Ras-converting enzyme; Q03530; yeast membranes, quenched prenylated peptide cleavage fluorescence; calls only; actives 0.27% (n = 290,000); AID 2563;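 active = fall in fluorescence gain of 50% or more versus controls, with final raw signal at or below 3038400; inconclusive = same 50% fall but final raw signal above 3038400; inactive = fall in fluorescence gain under 50%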;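 also: plate controls were neutral control wells for no effect and wells lacking membranes for full effect; tested at 10 µM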
Target sequence (Q03530 whole entry, looked up): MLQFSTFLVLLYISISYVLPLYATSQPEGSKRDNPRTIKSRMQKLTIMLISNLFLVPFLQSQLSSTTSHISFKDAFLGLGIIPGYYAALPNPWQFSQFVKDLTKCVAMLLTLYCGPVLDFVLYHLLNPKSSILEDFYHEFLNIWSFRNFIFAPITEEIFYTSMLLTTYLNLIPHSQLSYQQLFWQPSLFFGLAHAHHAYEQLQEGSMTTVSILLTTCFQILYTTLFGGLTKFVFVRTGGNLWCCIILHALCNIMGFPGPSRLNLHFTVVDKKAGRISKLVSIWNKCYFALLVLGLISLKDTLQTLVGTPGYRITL
Env fusion inh: HIV envelope-mediated fusion inhibition | HeLa-JRFL Env/CEM21 cell fusion, luciferase | inhibition, % at 12.3 µM | actives 1.1% (n = 360,000) | AID 651610;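 active = mean replicate inhibition score of at least 50 and every replicate individually at or above 50; inconclusive = only one of the two criteria met; inactive = mean below 50 and not all replicates reaching 50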;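 also: 0% = plate neutral controls and 100% = maraviroc near 300 nM; one replicate is shown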
CSC inhib: blocks cancer stem cells; cancer stem cell-like cells viability, luminescence; inhibition, % at 7.5 µM; actives 1.1% (n = 300,000); AID 2717;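 active = mean at 75% or more and at least half the replicates too; inconclusive = mean and replicates disagree; tested in HMLE shEcad cells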;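 also: 0% = median of negative and 100% = median of positive control wells; the first replicate is given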
Yeast UUG start: modulators of start codon recognition fidelity in yeast; S. cerevisiae UUG-firefly luciferase reporter, luminescence/redox ratio; activity score, % at 18.7 µM; actives 0.13% (n = 350,000); AID 602363;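 active = replicate mean at a twofold rise or more, about +100% in these data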;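 also: firefly luciferase made from a UUG start codon reports start codon fidelity; reporter light over untreated wells divided by growth signal over untreated wells; some hits fall short of that in this replicate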
MT1-MMP act inh: inhibitors of human MT1-MMP activation; actives 0.061% (n = 360,000); P50281; HT1080 RFP-PRO-GFP cells, GFP/RFP ratio fluorescence, overnight; percent of plate control window, DMSO zero; GFP/RFP ratio change, % at 20 µM; AID 651647;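 active = GFP/RFP ratio change of at least 30% with cell ATP level not reduced by more than half and red fluorescence within 50% of control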; also: strong numbers were not always called active
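Test system: HT1080 RFP-PRO-GFP cells; Benchmarks: DMSO and RFP-L50D-GFP cell wells; Timing: cells overnight before dosing, compound overnight, 37 °C, 5% CO2; Compound: one 20 µM compound dose with 1% DMSO; Read-out: GFP/RFP fluorescence ratio.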
PABP polyA inh: blocks human PABP binding to poly(A) RNA; P11940; fluorescence polarization; inhibition, % at 35 µM; actives 1% (n = 290,000); AID 2014;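 active = 50% or more with normal probe brightness, or confirmed in later tests; inconclusive = above 50% with abnormal brightness, or retests that disagree; inactive = below 50% or failed in later tests; about a fifth of its hits are not listed in these tables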;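 also: calls also rest on retests at 20 µM and on dose response follow-up; controls were probe without protein and protein plus probe with vehicle; some compounds called inactive have numbers as strong as hits; many hits fall short of the cut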
Target sequence (P11940 whole entry, looked up): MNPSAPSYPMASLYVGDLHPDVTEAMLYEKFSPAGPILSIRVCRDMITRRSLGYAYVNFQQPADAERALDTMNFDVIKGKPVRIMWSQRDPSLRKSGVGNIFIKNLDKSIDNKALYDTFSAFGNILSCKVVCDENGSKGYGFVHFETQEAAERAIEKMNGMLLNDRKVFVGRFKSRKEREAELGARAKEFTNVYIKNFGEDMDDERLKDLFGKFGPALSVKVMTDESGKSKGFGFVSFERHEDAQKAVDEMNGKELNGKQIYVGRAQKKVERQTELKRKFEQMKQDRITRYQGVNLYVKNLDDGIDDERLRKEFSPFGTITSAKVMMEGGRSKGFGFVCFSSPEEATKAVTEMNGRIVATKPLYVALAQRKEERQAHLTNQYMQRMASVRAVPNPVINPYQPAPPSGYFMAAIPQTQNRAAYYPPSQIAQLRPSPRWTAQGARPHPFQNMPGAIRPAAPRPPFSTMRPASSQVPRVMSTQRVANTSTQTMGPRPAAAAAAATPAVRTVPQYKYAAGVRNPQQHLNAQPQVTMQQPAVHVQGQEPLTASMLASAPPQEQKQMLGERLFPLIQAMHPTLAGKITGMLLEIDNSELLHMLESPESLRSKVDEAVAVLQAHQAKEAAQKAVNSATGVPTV
eIF4H FP inh: inhibitors of RNA binding by human eIF4H; eIF4H fluorescence polarization binding assay; actives 0.94% (n = 290,000); Q15056; inhibition, % at 35 µM; AID 2012;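 active = 50% or more with normal probe brightness, or confirmed in later tests; inconclusive = above 50% with abnormal brightness, or retests that disagree; inactive = below 50% or failed in later tests; about a fifth of its hits are not listed in these tables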;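 also: calls also rest on retests at 20 µM and on dose response follow-up; 0% = protein and probe with vehicle and 100% = probe without protein; strong numbers were not always called active; many hits fall short of the cut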
eIF4H FP inh retest: second read-out of eIF4H FP inh, no call of its own (marks repeat the call); inhibition, %; compound at 20 µM; confirmation average;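 mean of two retest wells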
PABP polyA inh retest: further read-out of PABP polyA inh, marked with its call; inhibition, %; compound at 20 µM; confirmation repeats;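 mean of two retest wells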
MT1-MMP act inh RFP: also measured in MT1-MMP act inh; calls as there; RFP signal change, %; measured here: RFP expression control read;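 0 = vehicle wells; hits needed this value within 50% of zero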
* marks the source's active call; other numbers are inactive results; i = inactive; ? = inconclusive; · = no result given; & = joins results of further samples; [ ] = dose if it differs, or a comment.

SMILES | Rce1 inh | Env fusion inh | CSC inhib | Yeast UUG start | MT1-MMP act inh | MT1-MMP act inh RFP | PABP polyA inh | eIF4H FP inh | others
COc1ccc(NC(=O)N(C)C[C@H]2Oc3ccc(NC(=O)CCN4CCOCC4)cc3C(=O)N([C@H](C)CO)C[C@@H]2C)cc1 | · | 8.7[16.7 µM] | -18.9 | -6.8&41.5 | 5.9 | 3.6 | · | ·
CCN1CCN(Cc2ccc(OCc3ccccc3)cc2)CC1 | i | 7.8 | ? | -23.3 | 4.2 | 1.0 | 32.5 | -2.6
O=C(NN=C1CCCCCC1)c1ccc(Cl)s1 | i | -26.9 | -8.3 | -19.0 | 2.4 | 1.5 | 2.0 | -2.3
CCc1cccc2c(C=C(C#N)C#N)cn(CC(=O)N3CCCCC3)c12 | i | · | -4.6 | · | 0.2 | -1.4 | -3.7 | 1.3
COc1ccc(CCNC(=O)COc2cc(O)c3c(c2)OC(C)(C)CC3=O)cc1OC | i | · | -10.2 | -3.4 | -2.4 | -1.8 | -17.3 | -5.8
C/C(=N\NC(=O)CO/N=C(\C)c1cccs1)c1ccc(N)cc1 | i | 6.7 | 12.2 | -16.5 | 3.9 | 0.0 | 5.0 | 2.0
Cc1cccc(N(C(=O)c2snc(C(N)=O)c2N)C(C(=O)NC2CCCC2)c2ccco2)c1 (configuration not stated) | i | 6.5 | · | -5.2 | -2.4 | -2.4 | 7.5 | 11.3
NC(=O)c1ccc(Nc2nc(C(N)COCc3ccccc3)cs2)cc1 (configuration not stated) | · | -97.2 | · | -25.3 | -0.6 | 0.6 | · | ·
COc1cccc(/C=N/NC(=O)c2ccoc2C)c1O | i | -99.4 | 13.7 | -25.0 | -4.8 | -3.8 | -8.9 | 4.5
CC1(CCc2ccccc2)NC(=O)N(CC(=O)N2CCc3ccccc32)C1=O (configuration not stated) | · | 6.9 | · | -5.2 | 2.0 | 4.1 | · | ·
CCOc1ccccc1NC(=O)n1ncc2c(C)cccc21 | i | -11.8 | 8.7 | -4.6 | 0.8 | -1.2 | -7.9 | -6.0
COc1ccc(C)cc1NC(=O)C(=O)c1cn(CC(=O)N2CCCC2)c2ccccc12 | i | -2.5 | 8.6 | -9.7 | -0.5 | -1.1 | -4.9 | -8.2
CCc1ccc(N2CC(C(=O)OCC(=O)Nc3cc(C)on3)CC2=O)cc1 (configuration not stated) | i | -2.9 | -9.3 | -7.8 | -0.6 | 0.6 | 2.0 | 7.4
O=C(COC(=O)CCCSc1nc2ccccc2[nH]1)NC(=O)NC1CCCC1 | i | · | -10.0 | · | 3.1 | 3.4 | -10.6 | -8.1
COc1ccc(CNC(=O)COC(=O)c2[nH]c(C)c(C(C)=O)c2C)cc1OC | · | · | -1.1 | -42.5 | 6.5 | 0.2 | · | ·
CCNC(=O)O/N=C1\CCCCC1c1ccc([N+](=O)[O-])cc1[N+](=O)[O-] (configuration not stated) | i | 6.2 | -12.2 | 1.6 | -1.2 | -2.5 | 11.1 | 6.7
CCC1=C(c2cc(OC)c(OC)c(OC)c2)C2(CCCC2)C(=O)O1 | i | 7.4 | 2.3 | -8.5 | -3.7 | 1.6 | 12.9 | -10.8
CCCN(CCC)C(=O)Cn1c(=O)c2sccc2n2c(=S)sc(-c3ccccc3)c12 | i | 6.4 | · | 3.7 | -14.7 | 5.2 | ? | ?
CC(=O)c1ccc(N2CCN(Cc3nc4ccccc4[nH]3)CC2)cc1 | i | 3.2 | · | -2.8 | -3.9 | -3.3 | 11.1 | -8.0
COc1ccc(Cl)cc1NS(=O)(=O)c1c(C)[nH]c(C)c1C(=O)N1CCCCC1 | i | 6.0 | 3.3 | -10.0 | 2.0 | 5.8 | -9.4 | -12.2
CCCN(CC1CC1)S(=O)(=O)c1ccc(S(N)(=O)=O)cc1 | i | -15.9 | -7.5 | 0.8 | 1.5 | 3.5 | -8.0 | 2.3
O=c1c2ccccc2nnn1CSc1ncnc2ccccc12 | i | · | 7.5 | · | -12.1 | -13.4 | 2.8 | 3.8
CCc1nn(C(C)C(=O)NCCc2ccccc2)c(=O)c2cc3occc3n12 (configuration not stated) | i | -4.2 | -9.9 | -3.6 | -2.3 | -0.1 | 7.2 | 0.1
COc1ccc(-c2nnc3n2CCCCC3)cc1 | i | -1.4 | -2.4 | -18.5 | 3.3 | 4.9 | 1.5 | -12.1
FC(F)(F)c1cccc(OCCN2CCN(Cc3ccccc3)CC2)c1 | i | 13.3 | 5.6 | 2.8 | 1.5 | 3.9 | 16.0 | -5.9
CCCCCC(C)NC(=O)c1ccoc1C (configuration not stated) | i | -36.6 | 5.1 | -8.4 | 1.0 | -3.7 | 1.1 | 3.6
O=C(Cn1cnc2c(nnn2-c2ccccc2)c1=O)N1CCC(Cc2ccccc2)CC1 | i | -11.3 | 16.9 | -10.9 | 2.1 | -4.4 | 2.9 | 1.6
COc1ccc(Cc2nc3ccc(C(=O)NCCn4cccn4)cc3o2)cc1 | i | -1.1 | -6.6 | -16.7 | -4.0 | -3.7 | -2.0 | 2.9
CC(NC(=O)COC(=O)CN1C(=O)c2ccccc2C1=O)c1ccccc1 (configuration not stated) | · | · | 3.5 | -0.5 | -0.4 | 2.5 | · | ·
CCC(C(=O)N1CCc2ccccc2C1)n1nc(C)n2c(cc3occc32)c1=O (configuration not stated) | i | · | -8.2 | 1.4 | 1.6 | 3.9 | 2.5 | -7.6
O=C1NC(=O)C2C3c4ccccc4C(c4ccccc43)C12 (configuration not stated) | i | -17.0 | -7.4 | -6.2 | 7.2 | 5.3 | -3.9 | 0.5
Cc1c(Cl)cccc1NC(=O)N1CCCN(c2nc(-c3ccccc3)ns2)CC1 | i | 55.1* | 13.3 | -2.1 | 6.1 | -30.2 | 12.2 | 6.9
O=C1CC(C(=O)N(c2ccc(F)cc2)C(C(=O)NC2CCCC2)c2ccccn2)CS1 (configuration not stated) | i | · | -7.0 | · | 3.4 | 3.7 | 1.7 | -15.9
O=C(N/N=C/c1ccc(O)cc1)NC12CC3CC(CC(C3)C1)C2 | i | 9.1 | -3.9 | -18.5 | 6.4 | -7.0 | -2.1 | 1.6
Cc1cc(C)c2c(CC(=O)NN(C)C)coc2c1 | i | 9.9 | · | -9.8 | 0.2 | 3.7 | -6.9 | 3.6
CCOC(=O)c1c(NC(=O)CSc2ccccc2C(=O)O)sc(C)c1C | i | 20.4 | -6.7 | -13.6 | -0.7 | 2.5 | 7.6 | 3.9
Nc1nc(CSc2nnnn2-c2ccccc2)nc(Nc2ccccc2)n1 | · | -45.1 | · | -11.0 | 2.8 | -1.2 | · | ·
NC(=O)[C@@H]1CCCNc2c(I)cc([N+](=O)[O-])cc2C(=O)N[C@@H](CO)C(=O)N[C@@H](Cc2ccc(O)cc2)C(=O)N1 | i | -4.4 | 6.9 | 11.1 | 2.4 | -4.1 | -5.5 | -3.6
Cc1cc(C(c2cc(C)c(N)c(C)c2)c2ccco2)cc(C)c1N | i | 5.9 | -1.4 | -22.7 | 2.9 | -2.5 | · | ·
CCCCCCn1c(=O)n2n(c1=O)C[C@]1(OC(=O)Nc3cccs3)CN(S(=O)(=O)c3ccc(C)cc3)C[C@]1(O)C2 | · | -76.5 | · | -15.1 | 11.3 | -13.2 | · | ·
CCC(NS(=O)(=O)c1cnn(CC)c1)c1ccccc1 (configuration not stated) | i | 16.4 | -17.9 | -5.8 | -1.0 | 2.0 | 10.2 | -5.2
CSc1ncccc1C(=O)OCC(=O)N1CCCC1 | · | · | -23.9 | -0.4 | 1.2 | 0.3 | · | ·
CCC(=O)Nc1cccc(NC(=O)COc2ccc(OC)cc2)c1 | i | -1.8 | -2.1 | -16.0 | -3.4 | 3.6 | 8.4 | 2.6
CC(C)(C)N1CC(c2nc3ccccc3n2Cc2ccc(Cl)cc2)CC1=O (configuration not stated) | i | -9.2 | 1.1 | -6.6 | -4.4 | -2.6 | -8.6 | 3.5
N#Cc1ccc(-c2ccccc2)nc1Sc1ccc(F)cc1 | i | -13.2 | -16.9 | -6.4 | 3.0 | 3.9 | 11.6 | 8.8
Cc1ccc(-c2cc(-c3ccco3)c(C#N)c(=O)[nH]2)cc1 | i | 4.2 | -1.9 | · | -1.9 | 7.4 | ? | ?
CC(=O)N=c1scc(-c2ccccc2)n1-c1cccc(O)c1 | i | -15.4 | 27.6 | -42.5 | -12.2 | -6.0 | 7.7 | 1.1
O=C(O)CN1C(=O)/C(=C\c2cc(Br)ccc2OCc2ccc(F)cc2)SC1=S | i | -27.2 | 41.2 | -11.4 | -3.7 | -1.7 | 24.5 | 18.9
COc1ccc(Cc2c(C)nc(N)nc2Cl)cc1 | · | 9.8 | -5.7 | · | 2.9 | 1.0 | -3.7 | 1.1
CCN(CCCNC(=O)C1CCC(=O)N1C(C)C)c1cccc(C)c1 (configuration not stated) | · | -34.4 | -12.2 | -5.3 | -0.8 | -1.3 | -6.9 | -2.9
(listing goes on)
SMILES | Rce1 inh | Env fusion inh | CSC inhib | Yeast UUG start | MT1-MMP act inh | MT1-MMP act inh RFP | PABP polyA inh | eIF4H FP inh | others
C#CCOCCOCCOCCNc1nc(N2CCOCC2)nc(N2CCN(C(=O)[C@H](CCCCN)n3cc(CCC(=O)O)nn3)CC2)n1 | · | 9.1 | · | 25.5 | 4.5 | 6.2 | · | ·
Cc1nc(N2CCN(C(=O)c3ccco3)CC2)nc2c1C(=O)CCC2 | i | 1.7 | -13.4 | -6.2 | 0.5 | 1.8 | 8.2 | 62.5 | eIF4H FP inh retest=-0.6;PABP polyA inh retest=9.6
O=C(O)CCC(=O)N1CCc2cc(S(=O)(=O)NC3CCCC3)ccc21 | i | -49.0 | 0.8 | -10.1 | -1.8 | 1.0 | 7.2 | -9.4
O=S1(=O)N=C(Oc2cccc3ccccc23)c2ccccc21 | i | -34.7 | 15.6 | -22.4 | 1.6 | 3.8 | 12.4 | -6.0
COc1ccccc1CC(=O)Nc1ccc2c(c1)OC1(CCCC1)O2 | · | -0.4 | 9.6 | 3.4 | 2.5 | -2.1 | · | ·
CC(C)c1ccc(NC(=O)CNCC(c2ccccc2)N(C)C)cc1 (configuration not stated) | i | 7.6 | 2.4 | -14.3 | 3.8 | 3.4 | -4.6 | -0.3
Cc1noc(/C=C/c2nn(C)cc2Cl)c1[N+](=O)[O-] | i | -25.7 | -4.2 | -12.8 | 1.5 | -1.3 | 10.7 | -0.3
Cc1ccc(CNS(=O)(=O)c2ccc(CN3C(=O)c4cccnc4C3=O)cc2)o1 | i | -5.0 | -18.1 | -5.0 | -0.4 | 2.2 | 3.2 | -8.2
O=C(COC(=O)Cc1ccc(S(=O)(=O)N2CCOCC2)s1)NCc1ccccc1 | i | · | -15.0 | -13.9 | -1.5 | 5.2 | 2.7 | 3.2
CC(C)(C)NC(=O)NC(=O)COC(=O)C1CC(=O)N(Cc2ccccc2)C1 (configuration not stated) | i | · | 1.1 | -3.0 | -0.6 | 2.2 | -15.1 | -11.1
CCc1ccc(N2CC(C(=O)N(CC)CC(=O)Nc3c(F)cccc3F)CC2=O)cc1 (configuration not stated) | · | 7.5 | · | 11.5 | -1.7 | 0.5 | · | ·
CCOc1ccc(S(=O)(=O)Nc2cc(F)ccc2F)c2cccnc12 | i | 6.0 | -0.3 | -15.9 | -3.0 | 0.6 | 12.9 | 11.8
COc1ccc(CC(=O)NC(=S)Nc2ccc(S(=O)(=O)NC(C)(C)C)cc2)cc1 | i | · | · | -5.5 | 6.3 | -10.0 | -2.5 | 3.0

Not all compounds are listed, so the mix of outcomes need not match the whole.
